Beta cell apopt = beta cell apoptosis inhibition; INS-1E cytokine-induced death, ATP luminescence, 48 h; percent of positive-control rescue, neutral wells zero; protection from apoptosis, % (no concentration beside the values); 300,000 compounds, 0.8% hits;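 active means all replicates at 75% or more, or half of them and the mean; inconclusive means half reach 75% but not the mean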;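 further: 0% = cytokine-treated negative control wells and 100% = positive control rescue; higher means more ATP so stronger rescue from cytokine killing; wells of about 40 µL received 100 nL stock; the first replicate is given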
A1 inh = inhibitors of the anti-apoptotic protein A1, read as caspase activation | MEF A1-2A-BIM cells, Caspase-Glo 3/7 luminescence, 3 h; percent of clofoctol response, vehicle zero | 330,000 compounds, 0.066% hits | caspase activation, % (test concentration not listed) | AID 2462;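 active means over half of replicate activation scores above 10%, or exactly half above 10 with the replicate mean above 10; inconclusive means replicate mean below 10 yet half the replicates above 10; inactive means over half of replicates below 10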;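 further: wells of about 30 µL received 50 nL stock; many hits fall short of the cut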
B2AR ag = human beta-2 adrenergic receptor agonism by FAP; Am2.2-beta2AR cells, FAP receptor internalization, flow cytometry; reference of the scale not given here; response, % (concentration not given with the values); 340,000 compounds, 0.43% hits;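 active means response above a set limit, near 3 SD of response in nonfluorescent compounds, cut at about 42% in these data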;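 further: stock transfer was 100 nL into about 11 µL; a reference agonist was the positive control; negative values mostly stem from fluorescent compounds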
Target sequence (P07550 whole entry, looked up): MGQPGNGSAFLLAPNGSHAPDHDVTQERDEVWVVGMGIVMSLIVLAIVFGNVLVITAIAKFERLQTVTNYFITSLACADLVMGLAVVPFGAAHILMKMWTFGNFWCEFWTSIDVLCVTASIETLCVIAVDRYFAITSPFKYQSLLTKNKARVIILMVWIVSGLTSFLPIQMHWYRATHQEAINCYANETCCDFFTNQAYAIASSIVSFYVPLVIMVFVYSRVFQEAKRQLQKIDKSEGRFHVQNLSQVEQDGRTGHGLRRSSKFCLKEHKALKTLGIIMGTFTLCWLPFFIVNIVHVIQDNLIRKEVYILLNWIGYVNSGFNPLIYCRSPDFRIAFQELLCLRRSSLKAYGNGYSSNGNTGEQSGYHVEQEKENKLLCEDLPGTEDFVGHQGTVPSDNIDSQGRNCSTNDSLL
Ecoli rRNA inh = selective bacterial rRNA inhibition in E. coli. E. coli WT GFP vs humanized-ribosome RFP mutants, fluorescence, 24 h; hits give low values; DMSO median 0, no signal -100. GFP signal change (wild-type ribosome), % (concentration not given with the values). 350,000 compounds, 1.6% hits. AID 720706;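 active means significant combined selectivity score with lowered wild-type GFP, culture density cut under 30%, mutant RFP and density less affected; inactive means any of these conditions unmet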; further: one replicate is shown; some compounds called inactive have numbers as strong as hits
Calb FLC = C. albicans growth modulation with fluconazole. growth inhibition, % (concentration not given with the values). C. albicans CaCi-2 (fluconazole-resistant clinical isolate) + fluconazole, Alamar Blue growth, 48 h. AID 1979. 300,000 compounds, 0.57% hits;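 active means most replicates above 75%; inconclusive means exactly half above 75%; inactive means most below 75%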;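 further: all wells also contain fluconazole at 8 µg/ml as a sub-toxic cotreatment; 0% = median of DMSO wells and 100% = median of geldanamycin control wells; wells of about 8 µL received 7.5 nL stock; the first replicate is given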
ALR inh = human ALR oxidase inhibition via reduced H2O2 | purified ALR, DTT oxidation, H2O2 HRP-luminol luminescence | P55789 | AID 485317 | 290,000 compounds, 3.8% hits | inhibition, % (no concentration beside the values);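 active means mean and each replicate at 75% or more; inconclusive means only one of the two met; inactive means neither met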;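 further: stock transfer was 7.5 nL into about 7.5 µL; 0% = neutral wells and 100% = wells with inactivated enzyme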
Target sequence (P55789 whole entry, looked up): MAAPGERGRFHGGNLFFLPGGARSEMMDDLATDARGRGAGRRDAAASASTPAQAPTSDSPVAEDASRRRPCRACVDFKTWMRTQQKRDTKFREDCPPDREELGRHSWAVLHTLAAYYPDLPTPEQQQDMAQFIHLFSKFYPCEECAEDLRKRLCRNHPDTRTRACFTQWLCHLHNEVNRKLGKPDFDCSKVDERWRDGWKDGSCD
T cruzi repl = blocks replication of Trypanosoma cruzi; 300,000 compounds, 1.4% hits; inhibition, % (test concentration not listed); T. cruzi beta-gal in NIH3T3, luminescence, 90 h;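 active means mean inhibition across valid replicates above about 55%, limit read from the data; inconclusive means mean below that limit but half or more replicates reach it; inactive means mean below it, under half of replicates reach it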;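 further: signal also drops with host cell toxicity which is not excluded here; 0% = plate median of DMSO wells and 100% = zero luminescence signal; higher percent means less beta-gal luminescence so fewer parasites; stock transfer was 50 nL into about 50 µL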
LANA-H2A inh = blocks KSHV LANA binding to histone H2A/H2B; cell-free LANA-H2A/H2B peptide, fluorescence polarization; inhibition, % (no concentration beside the values); 320,000 compounds, 0.6% hits; in the data active means inhibition mostly above about 10%, no sharp cut-off; inactive means mostly below about 6.7%;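 further: stock transfer was 7.5 nL into about 10 µL; 0% = median of vehicle wells and 100% = median of positive control wells; one replicate is shown; the record names a cut of 25% in any replicate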
Ecoli rRNA inh OD600 = further read-out of Ecoli rRNA inh, marked with its call; OD600 change, %; measured here: OD600 growth;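 optical density of the mix in the first replicate; 0 = DMSO median and -100 = no signal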
Ecoli rRNA inh RFP = second read-out of Ecoli rRNA inh, no call of its own (marks repeat the call); RFP signal change, %; measured here: RFP humanized mutant strains;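 first replicate; 0 = DMSO median and -100 = no signal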
* marks the source's active call; other numbers are inactive results; ? = inconclusive; . = not tested or not shown; & = joins results of further samples.

SMILES	Beta cell apopt	A1 inh	B2AR ag	Ecoli rRNA inh	Ecoli rRNA inh OD600	Ecoli rRNA inh RFP	Calb FLC	ALR inh	T cruzi repl	LANA-H2A inh
Cn1ccnc1C1CCCCN1C(=O)c1cc(COc2ccc(F)cc2Cl)on1 (stereo unspecified)	0	0.1	-5	-44	-68	-7.5	-11	-7	20	3.8
CCN(CC)c1ccc(/C=N/NC(=O)C2CC2)cc1	-3	0.3	-8	18	17	0.6	-11	100*	-9	1.9
O=C1OC(Nc2ccc(Cl)cn2)c2ccccc21 (stereo unspecified)	-1	0.0	1	.	.	.	-3	.	-13	-1.1
CCN(CC(=O)NCc1ccc(Cl)cc1)C(=O)c1sccc1C	5	1.4	2	-2	-6	-2.0	.	.	.	-7.1
O=C(COC(=O)C1=Cc2ccccc2OC1)NC1CCCC1	-2	-1.0	10	.	.	.	-3	-3	-14	5.2
O=C(NCC(=O)N1CCOCC1)c1ccccc1	-3	-0.5	-1	8	13	7.6	-5	-2	6	-1.7
Cc1ccc(CN2C(=O)C(Cc3ccccc3)Nc3ncnc(N4CCCCC4)c32)cc1 (stereo unspecified)	.	1.0	-1	1&-7	-5&0	-7.4&10	-14	-1	25	-3.1
COc1cc(C2C(C#N)=C(N)Oc3cc(N)ccc32)cc(OC)c1OC (stereo unspecified)	20	1.9	50*	.	.	.	.	-40	.	-2.9
O=C(CN(C1CCCCC1)C1CCCCC1)N1CCc2ccccc2C1	3	-0.2	38	.	.	.	-1	0	22	-7.9
O=C(c1cc(F)ccc1F)C1CCCN(C(=O)c2ccc3nccnc3c2)C1 (stereo unspecified)	-3	-0.4	-4	6	4	2.2	4	0	-18	0.5
Cc1sc2ncnc(N/N=C/c3ccc(O)cc3)c2c1C	0	?	1	-28	-38	-7.5	-14	72	3	-3.5
CC(C)(C)C(=O)COC(=O)c1cc2ccccc2cc1O	-8	-0.1	-1	.	.	.	18	-17	-9	0.0
CN(C(=O)c1ccc(OC2CCN(S(=O)(=O)N(C)C)CC2)cc1)C1CCCCC1	20	-0.1	16	-6	-5	3.5	-18	-6	14	3.6
Cc1ccc(Nc2nc(N)nc(CC#N)n2)cc1	4	-1.3	18	.	.	.	17	14	1	-3.0
COc1ccc(NCc2nnc(SCC(=O)c3ccc(OC)cc3)n2C)cc1	-4	-0.5	2	.	.	.	-9	-6	5	1.6
O=C(CCn1cnc(-c2ccccc2)c1-c1ccccc1)N/N=C/c1ccccc1O	38	0.2	-7	-30	-37	-5.9	13	4	10	0.5
COc1ccc(CCC(=O)N2CCN(c3ccc([N+](=O)[O-])cc3)CC2)cc1OC	-1	-0.1	9	-7	-3	0.9	-3	15	7	2.4
CCO[C@@H]1OC(C(=O)O)=C[C@H](c2ccccc2)[C@H]1CCCO	-1	1.6	0	0	-1	15	-1	-3	-21	4.1
O=C1CSC(c2cccc([N+](=O)[O-])c2)N1c1ccc(O)cc1 (stereo unspecified)	-2	0.0	-3	17	13	3.5	51	-1	5	4.1
O=C(NCc1ccco1)/C(=C/c1ccco1)NC(=O)c1ccccc1	-2	-0.7	-9	5	8	-0.6	-29	2	-5	-3.7

Continued, starting with the last 2 of the part before.
SMILES	Beta cell apopt	A1 inh	B2AR ag	Ecoli rRNA inh	Ecoli rRNA inh OD600	Ecoli rRNA inh RFP	Calb FLC	ALR inh	T cruzi repl	LANA-H2A inh
O=C1CSC(c2cccc([N+](=O)[O-])c2)N1c1ccc(O)cc1 (stereo unspecified)	-2	0.0	-3	17	13	3.5	51	-1	5	4.1
O=C(NCc1ccco1)/C(=C/c1ccco1)NC(=O)c1ccccc1	-2	-0.7	-9	5	8	-0.6	-29	2	-5	-3.7
O=C(NC1CCC(O)CC1)c1ccc(S(=O)(=O)NCc2ccco2)cc1 (stereo unspecified)	-8	0.3	-4	.	.	.	5	-7	-20	2.1
COC(=O)c1nn(-c2cccc(Cl)c2)cc(OC)c1=O	.	0.1	-13	4	6	0.0	-7	.	2	0.3
CC(C)c1ccc(NC(=O)CSc2nc3ccsc3c(=O)n2Cc2ccc(C(=O)O)cc2)cc1	-3	-0.2	27	-35	-38	-8.7	3	41	-49	2.0
Cc1cc(F)c(F)c(C(=O)N2CCOCC2)c1	-3	0.4	-4	.	.	.	-8	3	-9	-1.7
O=C(CN1C(=O)C2(OCCCO2)c2ccccc21)NCc1ccccc1	-1	0.0	-5	.	.	.	-4	-3	5	8.0
O=C(NC1CCS(=O)(=O)C1)c1ccc(Br)o1 (stereo unspecified)	0	-0.4	13	6	9	-1.7	1	.	-7	-11
COc1ccc(/C=C/C(=O)NC2CCCCCCC2)cc1S(=O)(=O)N1CCOCC1	-1	-0.3	3	-11	-9	1.0	4	3	-22	-7.4
O=C(CC1C(=O)NCCN1Cc1cccc(C(F)(F)F)c1)NCCc1cnccn1 (stereo unspecified)	0	-0.3	7	1	9	-1.3	0	-1	-10	2.0
COc1cc(C(=O)NCC(=O)N/N=C/c2cccc(OC(=O)c3ccco3)c2)cc(OC)c1OC	1	0.8	5	6	8	2.6	-15	3	-1	0.6
O=C(Nc1ccc(F)cc1)c1sc(Cl)nc1-c1ccccc1	-9	-0.4	-5	.	.	.	4	6	2	0.7
CCOC(=O)CCCNC(=O)COC(=O)c1ccc(O)cc1	-6	1.4	0	11	11	-0.6	-6	-1	5	5.7
Cc1ccc(C)c(NS(=O)(=O)c2ccc(NC(=O)c3ccco3)cc2)c1	4	0.1	-5	.	.	.	-8	.	10	-3.2
CC(=O)Nc1ccc(NC(=O)c2ccccc2F)cc1	.	-2.5	2	.	.	.	5	-5	3	0.9
C=CCn1c(SCc2ccccc2)nnc1-c1cccnc1	-1	1.2	-8	.	.	.	23	18	7	3.3
O=C(Nc1ccc2c(c1)OCO2)c1cc2nc(C3CC3)cc(C(F)(F)F)n2n1	.	.	-4	13	5	0.1	11	.	-1	.
O=C(Nc1cc2c3c(c1)CC(=O)N3CCC2)c1ccccc1Br	-4	0.6	-6	-2	4	-2.0	4	-2	-8	2.6
O=C(c1ccco1)N1CCN(Cc2ccc(Br)cc2)CC1	3	0.2	2	-5	-4	1.3	16	-2	?	-1.8
Cc1ccsc1C(=O)OC(C)C(=O)Nc1ccc(Cl)cn1 (stereo unspecified)	-17	-0.1	-7	-6	-54	-7.1	.	2	.	2.6
CCSc1c([N+](=O)[O-])c(=O)n(-c2ccccc2)c2ccccc12	3	0.2	13	12	7	0.7	26	-8	4	-1.8
Cc1cccnc1NC(=S)Nc1ccc(F)cc1F	-3	-0.4	-1	17	5	-2.4	-10	-6	-10	4.8
Cc1occc1C(=O)N/N=C/c1ccc(-c2cccc([N+](=O)[O-])c2)o1	5	-0.7	10	7	12	4.9	11	-5	68*	-0.2
Cc1cc(=O)[nH]c(Nc2ccc(C(=O)OC(C)C)cc2)n1	1	-1.0	5	.	.	.	-11	13	-9	-0.4
O=C(O)CCCN1C(=O)C2C3c4ccccc4C(c4ccccc43)[C@@H]2C1=O (stereo partly specified)	-2	-0.8	-2	6	3	-1.6	-1	-19	1	1.2
Cc1ccc(-c2nnn(CC(=O)N(c3ccccc3F)C(CC(C)C)C(=O)NCC3CCCO3)n2)cc1 (stereo unspecified)	-11	-0.9	-5	.	.	.	2	-31	17	-3.5
CN1CCN(C(=O)C2=C[C@H](c3ccc4c(c3)OCO4)C[C@H](OCCCCO)O2)CC1	-5	0.8	-11	10	-5	0.2	14	-11	-1	0.3
O=C(NCCC(c1ccccc1)c1ccccc1)c1cccs1	.	-0.1	-26	.	.	.	17	-9	8	1.5
CN1CCN(C(=O)c2cn(C)c3ccc(S(=O)(=O)N(C)C4CCCCC4)cc3c2=O)CC1	1	0.5	12	5	12	0.6	.	-1	.	-0.5
O=C(Cc1ccc(S(=O)(=O)N2CCCC2)s1)N1CCN(c2ccc(F)cc2)CC1	2	0.8	0	1	4	11	5	8	10	-2.0
COc1cccc(N=Nc2c(=O)[nH]n3c(=O)c4c([nH]c23)CCC4)c1	-6	-0.6	2	.	.	.	-3	40	3	-10
Cc1cccc(N(C(=O)c2snc(C(N)=O)c2N)C(C(=O)NC2CCCC2)c2ccc(C)o2)c1 (stereo unspecified)	2	0.1	3	8	8	0.5	6	.	30	15
CCS(=O)(=O)c1nc(S(=O)(=O)c2ccc(Cl)cc2)c(N2CCc3ccccc3C2)s1	-10	0.0	-10	8	2	4.1	6	6	-21	3.8
CCOc1nc(-c2ccccc2)ccc1-c1noc(-c2ccncc2)n1	7	-1.0	-11	.	.	.	4	-2	20	2.0
Cc1ccc(NC(=S)N(Cc2ccccc2)C(C)C)cc1	0	-0.1	4	4	11	1.6	-7	-5	.	0.4
CC1CCCN(C(=O)COC(=O)C2CCN(S(=O)(=O)c3c(Cl)cccc3Cl)CC2)C1 (stereo unspecified)	.	0.2	6	-16	-18	4.1	-4	-11	7	1.4
COc1ccc(CCNC(=O)CSCc2n[nH]c(=O)[nH]2)cc1OC	1	-0.5	4	.	.	.	-6	-7	.	-1.3
CC(C)(O)C#Cc1ncc(C(F)(F)F)cc1Cl	-3	0.0	4	8	15	5.3	-1	-4	-7	3.1
Cc1cc(/C=C2/NC(=O)N(c3ccccc3)C2=O)c(C)n1C(C)C	-2	-0.7	6	3	-5	0.4	-10	-8	9	-2.4
COc1ccc(-c2c(NC(=O)c3ccco3)oc3ccccc3c2=O)cc1	2	1.1	-20	-2	-3	-3.6	0	-3	-1	-3.0
CN1CCN(C(=S)Nc2ccc([N+](=O)[O-])cc2)CC1	4	0.1	-6	.	.	.	-2	-12	-2	0.1
O=S(=O)(NCCC1=CCCCC1)c1ccccc1Cl	-6	-0.6	-4	-32	-44	-8.0	.	-10	.	-13
O=C(NCC(c1ccco1)N1CCc2ccccc21)C(=O)Nc1ccccc1 (stereo unspecified)	-1	0.3	2	6	10	1.5	0	20	36	2.0
CCCCOC(=O)n1c(=S)oc2cc(Cl)ccc21	9	-0.1	27	.	.	.	2	53	-3	3.6
O=C(NCC1CCCO1)C(=O)N/N=C\c1ccc2c(c1)OCO2 (stereo unspecified)	-14	1.5	2	12	10	2.2	-8	3	-24	-9.0
CSc1ccc(/C=C2/C(=N)N3N=C(CC(=O)N4CCCC4)SC3=NC2=O)cc1	-12	0.2	2	5	10	1.2	.	12	-3	0.7
O=C(Cn1cc[n+](CC(=O)c2ccccc2)c1)c1ccccc1	-1	0.4	-3	.	.	.	3	13	-3	-0.6
Cc1cc(NC(=O)C(C)C)ncc1NC(=O)CCc1ccccc1	-5	0.2	-4	7	12	4.5	1	6	-1	-4.2
COc1ccccc1N(CC(O)Cn1c(C)nc2ccccc21)S(=O)(=O)c1ccccc1 (stereo unspecified)	-1	-0.8	-1	.	.	.	-14	0	12	-7.0
CCOC(=O)c1sc(NC(=O)CCN2C(=O)c3ccccc3C2=O)c(C(=O)OCC)c1C	8	-0.9	-12	.	.	.	1	-3	8	1.4
COc1cccc(-n2ccnc2SCC(=O)Nc2nccs2)c1	.	0.4	4	.	.	.	-11	-6	0	5.8

From PubChem

This is a subset, so the mix of outcomes need not match the whole.
